Yeast UUG start = yeast start codon fidelity modulation. S. cerevisiae UUG-firefly luciferase reporter, luminescence/redox ratio. 350,000 compounds, 0.13% hits. activity score, % at 18.7 µM;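 active means replicate mean at a twofold rise or more, about +100% in these data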;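 further: firefly luciferase made from a UUG start codon reports start codon fidelity; reporter light over untreated wells divided by growth signal over untreated wells; some hits fall short of that in this replicate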
HIV Env fusion = HIV envelope-mediated fusion inhibition; inhibition, % at 12.3 µM; HeLa-JRFL Env/CEM21 cell fusion, luciferase; 360,000 compounds, 1.1% hits; AID 651610;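 active means mean replicate inhibition score of at least 50 and every replicate individually at or above 50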;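 further: 0% = plate neutral controls and 100% = maraviroc near 300 nM; one replicate is shown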
An asterisk follows results filed as active; [ ] = dose if it differs, or a comment. An excerpt (hit frequency here may not be typical).

Compound | Yeast UUG start | HIV Env fusion
CO[C@@H]1CN(C)C(=O)c2cc(NC(C)=O)ccc2OC[C@H](C)N(CCC(F)(F)F)C[C@@H]1C | 6 | -19[16.7 µM]
CNC(=O)C[C@H]1CC[C@@H]2[C@@H](COc3ccc(NC(=O)c4ccc(F)c(F)c4)cc3C(=O)N2C)O1 | 5 | 9[16.7 µM]
O=C(N[C@H]1CC[C@@H](CCn2cc(-c3cccnc3)nn2)O[C@H]1CO)c1ccccc1F | -6 | 5[16.7 µM]
C[C@H](CO)N1C[C@H](C)[C@H](CN(C)C(=O)Nc2ccc3c(c2)OCO3)OCCCC[C@H](C)Oc2ccc(NS(C)(=O)=O)cc2C1=O | 3 | -6[16.7 µM]
COc1ccc(S(=O)(=O)Nc2ccc3c(c2)C(=O)N([C@@H](C)CO)C[C@H](C)[C@@H](CN(C)Cc2ccc(-c4ccccc4)cc2)O3)cc1 | 6 | -1[16.7 µM]
Cc1ccc(S(=O)(=O)Nc2ccc3c(c2)CC(=O)N([C@H](C)CO)C[C@@H](C)[C@@H](CN(C)C(=O)Nc2cccc4ccccc24)O3)cc1 | 10 | -15[16.7 µM]
COc1ccccc1NC(=O)N[C@@H]1C=C[C@H](CC(=O)N[C@@H](C)c2ccccc2)O[C@H]1CO | 0 | 4[16.7 µM]
C[C@@H]1CN([C@H](C)CO)C(=O)c2cccc(NC(=O)C3CC3)c2O[C@H]1CN(C)C(=O)Nc1ccc(F)cc1 | -11 | 1[16.7 µM]
C[C@H](CO)N1C[C@H](C)[C@@H](CN(C)Cc2ccc(-c3ccccc3)cc2)Oc2ccc(NC(=O)Nc3ccc(C(F)(F)F)cc3)cc2CC1=O | -6 | 34[16.7 µM]
CN(C)CCCNC(=O)C[C@@H]1C=C[C@H](NC(=O)Cc2cccnc2)[C@H](CO)O1 | -1 | 12[16.7 µM]
CNC[C@@H]1Oc2cc(C#CC(C)C)ccc2S(=O)(=O)N([C@@H](C)CO)C[C@H]1C | 1 | 2[16.7 µM]
C[C@H](CO)N1C[C@H](C)[C@@H](CN(C)S(=O)(=O)c2cccs2)Oc2ccc(NC(=O)CCCN(C)C)cc2CC1=O | 25 | 6[16.7 µM]

(further entries)
Compound | Yeast UUG start | HIV Env fusion
COC(=O)C[C@@H]1C[C@H]2c3cc(NC(=O)c4cccnc4)ccc3O[C@H]2[C@H](CO)O1 | 0 | -13[16.7 µM]
O=C(C[C@H]1CC[C@@H](NS(=O)(=O)c2ccc(F)cc2)[C@H](CO)O1)NCc1ccncn1 | -3 | 4[16.7 µM]
C[C@H](CO)N1C[C@H](C)[C@H](CN(C)C(=O)C2CC2)Oc2ncc(C#Cc3ccccc3F)cc2C1=O | 0 | 21[16.7 µM]
C[C@H](CO)N1C[C@H](C)[C@@H](CN(C)C(=O)Nc2ccc(F)cc2)Oc2c(NC(=O)c3nc4ccccc4s3)cccc2C1=O | 11 | 5[16.7 µM]
C[C@H]1CN([C@@H](C)CO)C(=O)c2cc(C3=CCCCC3)cnc2O[C@@H]1CN(C)C(=O)c1ccncc1 | -12 | -3[16.7 µM]
C[C@@H]1CN([C@H](C)CO)C(=O)Cc2cc(NC(=O)Nc3cccc4ccccc34)ccc2O[C@@H]1CN(C)Cc1ccc(Oc2ccccc2)cc1 | 2 | -52[16.7 µM]
C[C@@H]1CN([C@H](C)CO)C(=O)c2cc(N(C)C)ccc2O[C@@H](C)CCCCO[C@@H]1CN(C)C(=O)Nc1cccc2ccccc12 | 41 | -9[16.7 µM]
Cc1noc(C)c1S(=O)(=O)Nc1ccc2c(c1)C(=O)N([C@@H](C)CO)C[C@H](C)[C@H](CN(C)Cc1ccc3c(c1)OCO3)OCCCC[C@H](C)O2 | 6 | 9[16.7 µM]
C[C@H]1CN([C@@H](C)CO)C(=O)c2cccc(NC(=O)Nc3ccc(F)cc3)c2O[C@H]1CN(C)C(=O)NC1CCCCC1 | 0 | 27[16.7 µM]
COc1ccc(S(=O)(=O)Nc2ccc3c(c2)CC(=O)N([C@@H](C)CO)C[C@@H](C)[C@@H](CN(C)Cc2ccc(-c4ccccc4)cc2)O3)cc1 | 2 | 22[16.7 µM]
COc1ccc(S(=O)(=O)N(C)C[C@H]2Oc3c(NC(=O)c4nc5ccccc5s4)cccc3C(=O)N([C@@H](C)CO)C[C@@H]2C)cc1 | 13 | -31[16.7 µM]
COc1cccc(C#Cc2cnc3c(c2)C(=O)N([C@@H](C)CO)C[C@@H](C)[C@@H](CN(C)C(=O)C2CCCCC2)O3)c1 | 1 | 19[16.7 µM]

Other records follow.
Compound | Yeast UUG start | HIV Env fusion
O=C(C[C@H]1CC[C@H]2[C@@H](COC[C@@H](O)CN2C(=O)c2cnccn2)O1)NCc1ccc(F)cc1 | -6 | -5[16.7 µM]
CN(C)c1ccc2c(c1)[C@H]1C[C@H](CC(=O)NCc3ccc(-c4ccccc4)cc3)O[C@@H](CO)[C@H]1O2 | -1 | -7[16.7 µM]
COc1ccc(NC(=O)N(C)C[C@H]2Oc3ncc(-c4cccnc4)cc3C(=O)N([C@H](C)CO)C[C@@H]2C)cc1 | 10 | -6[16.7 µM]
C[C@H](CO)N1C[C@H](C)[C@H](CN(C)C(=O)NC2CCCCC2)Oc2ncc(-c3ccccc3)cc2C1=O | 12 | -2[16.7 µM]
Cc1cc(C(=O)Nc2cccc3c2O[C@H](CN(C)S(=O)(=O)c2ccc(F)cc2)[C@H](C)CN([C@@H](C)CO)C3=O)n(C)n1 | 5 | 33[16.7 µM]
CC(C)CC#Cc1cnc2c(c1)C(=O)N([C@@H](C)CO)C[C@@H](C)[C@@H](CN(C)C(=O)c1cnccn1)O2 | 4 | -21[16.7 µM]
CC(C)CC#Cc1ccc2c(c1)O[C@H](CN(C)C(=O)c1cccc(F)c1)[C@@H](C)CN([C@H](C)CO)S2(=O)=O | -6 | -18[16.7 µM]
N#C[C@@H]1[C@H](c2ccc(C#Cc3ccccc3F)cc2)[C@@H](CO)N1C(=O)C1CCC1 | -17 | 31[16.7 µM]
COc1ccccc1S(=O)(=O)N(C)C[C@@H]1Oc2cc(C#CCC(C)C)ccc2S(=O)(=O)N([C@@H](C)CO)C[C@H]1C | -6 | 51[16.7 µM]
Cc1ccc(S(=O)(=O)Nc2ccc3c(c2)C(=O)N([C@@H](C)CO)C[C@@H](C)[C@H](CN(C)S(=O)(=O)c2cn(C)cn2)OCCCC[C@@H](C)O3)cc1 | -1 | -59[16.7 µM]
CCNC(=O)C[C@H]1CC[C@@H](NC(=O)C2CCC2)[C@H](CO)O1 | 2 | 3[16.7 µM]
COc1ccc(NC(=O)N(C)C[C@H]2Oc3ccc(NC(=O)NC4CCCCC4)cc3CC(=O)N([C@H](C)CO)C[C@H]2C)cc1 | -6 | 2[16.7 µM]

In a second layout: 4 of the compounds above.
Molecule: Cc1ccc(S(=O)(=O)Nc2ccc3c(c2)C(=O)N([C@@H](C)CO)C[C@@H](C)[C@H](CN(C)S(=O)(=O)c2cn(C)cn2)OCCCC[C@@H](C)O3)cc1
  Yeast UUG start = -1
  HIV Env fusion = -59[16.7 µM]
Molecule: N#C[C@@H]1[C@H](c2ccc(C#Cc3ccccc3F)cc2)[C@@H](CO)N1C(=O)C1CCC1
  Yeast UUG start = -17
  HIV Env fusion = 31[16.7 µM]
Molecule: COc1ccc(NC(=O)N(C)C[C@H]2Oc3ncc(-c4cccnc4)cc3C(=O)N([C@H](C)CO)C[C@@H]2C)cc1
  Yeast UUG start = 10
  HIV Env fusion = -6[16.7 µM]
Molecule: CC(C)CC#Cc1ccc2c(c1)O[C@H](CN(C)C(=O)c1cccc(F)c1)[C@@H](C)CN([C@H](C)CO)S2(=O)=O
  Yeast UUG start = -6
  HIV Env fusion = -18[16.7 µM]

The list goes on.
Compound | Yeast UUG start | HIV Env fusion
O=C(N[C@@H]1CC[C@H](CCn2cc(-c3ccccn3)nn2)O[C@@H]1CO)c1cccnc1 | -14 | 0[16.7 µM]
C[C@@H]1CN([C@@H](C)CO)C(=O)c2cccc(NS(=O)(=O)c3ccccc3)c2O[C@H]1CN(C)C(=O)Nc1ccc(C(F)(F)F)cc1 | -7 | 22[16.7 µM]
C[C@H](CO)N1C[C@H](C)[C@@H](CN(C)C(=O)CCC(F)(F)F)OCCCC[C@H](C)Oc2ccc(NS(C)(=O)=O)cc2C1=O | 25 | -14[16.7 µM]
CCCNC(=O)N[C@H]1CC[C@H](CC(=O)NC2CCCCC2)O[C@H]1CO | -10 | 7[16.7 µM]
CN(C)CC(=O)Nc1ccc2c(c1)[C@@H]1C[C@H](CC(=O)NC3CCCC3)O[C@@H](CO)[C@@H]1O2 | -3 | -35[16.7 µM]
C[C@@H]1CCCCO[C@@H](CN(C)C(=O)Nc2ccccc2)[C@@H](C)CN([C@H](C)CO)C(=O)c2cc(NS(=O)(=O)c3cn(C)cn3)ccc2O1 | -13 | -11[16.7 µM]
C[C@@H]1CN([C@H](C)CO)C(=O)c2cccc(NC(=O)C3CCCCC3)c2O[C@H]1CN(C)Cc1ccccc1 | -9 | 74*[16.7 µM]
C[C@H]1CN([C@@H](C)CO)C(=O)Cc2cc(N(C)C)ccc2O[C@@H]1CN(C)C | -3 | 3[16.7 µM]
O=C(C[C@H]1C[C@H]2c3cc(NC(=O)CC4CC4)ccc3O[C@H]2[C@@H](CO)O1)NCc1cc(F)ccc1F | -10 | 9[16.7 µM]
CC(C)NC(=O)N[C@@H]1CC[C@@H](CC(=O)NCCCN(C)C)O[C@H]1CO | -14 | 1[16.7 µM]
CN1C(=O)c2cc(NC(=O)C3CCOCC3)ccc2OC[C@@H]2O[C@@H](CC(=O)NCC3CC3)CC[C@@H]21 | -8 | -3[16.7 µM]
CCNC(=O)C[C@H]1CC[C@@H]2[C@@H](COc3ccc(NC(=O)c4cccc(C(F)(F)F)c4)cc3C(=O)N2C)O1 | 21 | 21[16.7 µM]

Next section
Compound | Yeast UUG start | HIV Env fusion
C[C@H](CO)N1C[C@H](C)[C@@H](CN(C)C(=O)Nc2ccc(C(F)(F)F)cc2)Oc2ncc(-c3cccnc3)cc2C1=O | -3 | -14[16.7 µM]
C[C@@H]1CCCCO[C@@H](CN(C)C(=O)NC2CCCCC2)[C@@H](C)CN([C@@H](C)CO)C(=O)c2cc(NC(=O)CCCN(C)C)ccc2O1 | 32 | 6[16.7 µM]
C[C@H](CO)N1C[C@H](C)[C@H](CN(C)Cc2ccc(C(F)(F)F)cc2)Oc2ccc(NC(=O)Nc3cccc4ccccc34)cc2C1=O | 13 | 11[16.7 µM]
O=C(C[C@@H]1C[C@H]2c3cc(NS(=O)(=O)c4ccc(F)cc4)ccc3O[C@H]2[C@@H](CO)O1)NCCc1ccccc1 | 22 | 0[16.7 µM]
O=C(C[C@H]1CC[C@@H]2[C@H](COC[C@H](O)CN2C(=O)c2ccccc2)O1)Nc1nccs1 | -2 | 8[16.7 µM]
O=C(C[C@@H]1C[C@@H]2c3cc(NC(=O)NC4CCCC4)ccc3O[C@@H]2[C@H](CO)O1)NCc1ccc2c(c1)OCO2 | 10 | -8[16.7 µM]
COCCOC(=O)N1C(=O)[C@@]2(c3cc(C#Cc4ccc(OC)cc4)ccc31)[C@H](c1ccc(OCCO)cc1)N1[C@H](c3ccccc3)[C@H](c3ccccc3)OC(=O)[C@H]1[C@@H]2C(=O)N1CCN(c2ncccn2)CC1 | -12 | 9[16.7 µM]
C[C@H](CO)N1C[C@H](C)[C@H](CN(C)S(=O)(=O)c2cccs2)Oc2ccc(NS(=O)(=O)c3ccc(F)cc3)cc2CC1=O | 4 | 11[16.7 µM]
O=C(C[C@H]1C=C[C@@H](NS(=O)(=O)c2ccc(F)cc2)[C@@H](CO)O1)NCc1ccncn1 | 1 | 2[16.7 µM]
CC(C)C#Cc1cnc2c(c1)C(=O)N([C@@H](C)CO)C[C@H](C)[C@@H](CN(C)C(=O)CN1CCOCC1)O2 | -7 | -17[16.7 µM]
COc1cccc(CNC(=O)C[C@@H]2CC[C@H](NS(=O)(=O)c3ccccc3OC)[C@@H](CO)O2)c1 | -12 | 16[16.7 µM]
COc1ccc(NC(=O)Nc2ccc3c(c2)C(=O)N([C@@H](C)CO)C[C@@H](C)[C@@H](CN(C)Cc2ccc(C(=O)Nc4ccccc4N)cc2)O3)cc1 | -9 | 24[16.7 µM]

(continued)
Compound | Yeast UUG start | HIV Env fusion
CC(C)NC(=O)Nc1ccc2c(c1)C(=O)N([C@@H](C)CO)C[C@@H](C)[C@H](CN(C)C(=O)Nc1cccc3ccccc13)OCCCC[C@@H](C)O2 | -7 | 1[16.7 µM]
O=C(C[C@H]1C=C[C@H](NC(=O)c2ccccc2)[C@H](CO)O1)NCCc1ccncc1 | -12 | 11[16.7 µM]
COc1ccc(S(=O)(=O)N(C)C[C@H]2Oc3ccc(NS(C)(=O)=O)cc3CC(=O)N([C@@H](C)CO)C[C@H]2C)cc1 | -9 | 9[16.7 µM]
CO[C@@H]1CN(C)C(=O)c2ccc(NC(=O)Nc3cc(F)ccc3F)cc2OC[C@@H](C)NC[C@H]1C | 12 | -2[16.7 µM]
O=C(C[C@@H]1C[C@@H]2c3cc(NC(=O)c4cccnc4)ccc3O[C@@H]2[C@H](CO)O1)NCC1CC1 | -3 | 22[16.7 µM]
CN(C)CCCNC(=O)C[C@H]1C=C[C@H](NS(=O)(=O)c2ccccc2)[C@H](CO)O1 | -9 | -2[16.7 µM]
C[C@@H]1CCCCO[C@@H](CN(C)C(=O)Nc2ccc(C(F)(F)F)cc2)[C@@H](C)CN([C@H](C)CO)C(=O)c2cc(NC(=O)Cc3ccccc3)ccc2O1 | -9 | -16[16.7 µM]
COc1ccc(CN(C)C[C@@H]2OCCCC[C@H](C)Oc3ccc(NC(=O)Nc4c(C)noc4C)cc3C(=O)N([C@@H](C)CO)C[C@H]2C)cc1 | 11 | -11[16.7 µM]
O=C(C[C@H]1C=C[C@@H](NC(=O)c2ccncc2)[C@H](CO)O1)Nc1ccc(-c2ccccc2)cc1 | -16 | -4[16.7 µM]
CC(C)NC(=O)N(C)C[C@@H]1Oc2ccc(NS(=O)(=O)c3cccs3)cc2CC(=O)N([C@H](C)CO)C[C@@H]1C | -14 | 1[16.7 µM]

Screening results (PubChem BioAssay)
